Compound activity deposited in PubChem by Broad Institute.
FGF22 binding – binders of recombinant human FGF22 by thermal shift; SYPRO orange fluorescence; percent of sucrose octasulfate shift, DMSO zero; calls only at 9.99 µM; 340,000 tested, 1.5% active;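 active = melting point raised past a set limit in the mean and every replicate; three in four hits are not shown here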
Target sequence (Q9HCT0 whole entry, looked up): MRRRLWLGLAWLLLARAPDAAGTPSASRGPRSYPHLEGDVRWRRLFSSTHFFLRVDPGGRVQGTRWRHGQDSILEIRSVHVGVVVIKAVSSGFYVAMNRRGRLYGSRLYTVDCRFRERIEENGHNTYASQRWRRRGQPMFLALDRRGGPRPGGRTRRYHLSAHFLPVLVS
Ecoli rRNA inh – inhibits bacterial ribosomal RNA function over humanized ribosomes; E. coli WT GFP vs humanized-ribosome RFP mutants, fluorescence, 24 h; hits give low values; DMSO median 0, no signal -100; GFP signal change (wild-type ribosome), % (test concentration not listed); 350,000 tested, 1.6% active; AID 720706;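 active = significant combined selectivity score with lowered wild-type GFP, culture density cut under 30%, mutant RFP and density less affected; inactive = any of these conditions unmet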; note: one replicate is shown; some compounds called inactive have numbers as strong as hits
Ecoli rRNA inh OD600 – also measured in Ecoli rRNA inh; calls as there; OD600 change, %; measured here: OD600 growth;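 optical density of the mix in the first replicate; 0 = DMSO median and -100 = no signal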
Ecoli rRNA inh RFP – further read-out of Ecoli rRNA inh, marked with its call; RFP signal change, %; measured here: RFP humanized mutant strains;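 first replicate; 0 = DMSO median and -100 = no signal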
Active calls of the source: *; i = inactive.

FGF22 binding | Ecoli rRNA inh | Ecoli rRNA inh OD600 | SMILES | Ecoli rRNA inh RFP
i | 5 | 4 | CCC(=O)N(C)C[C@@H]1Oc2ncc(C#CC(C)(C)O)cc2C(=O)N([C@@H](C)CO)C[C@H]1C | -0.2
i | 8 | 8 | CCCC#Cc1cnc2c(c1)C(=O)N([C@H](C)CO)C[C@H](C)[C@H](CN(C)S(=O)(=O)c1cn(C)cn1)O2 | -1.6
i | 2 | -2 | Cc1noc(C)c1S(=O)(=O)N(C)C[C@H]1Oc2ccc(NC(=O)NC3CCCCC3)cc2CC(=O)N([C@@H](C)CO)C[C@H]1C | 1.8
i | 10 | 9 | C[C@H](O)C#Cc1ccc([C@H]2[C@@H](CO)N3CCCCN(CC4CCOCC4)C[C@@H]23)cc1 | -4.3
i | -2 | 8 | CN(C)C(=O)[C@@H]1[C@@H](CO)[C@@H]2Cn3c(ccc(C4=CCCC4)c3=O)[C@H]1N2S(=O)(=O)c1cn(C)cn1 | -2.7
i | 3 | -5 | C[C@H]1CN([C@@H](C)CO)C(=O)Cc2cc(NC(=O)C3CC3)ccc2O[C@H]1CN(C)CC1CCCCC1 | 0.4
i | 2 | 5 | CN(C)CCCNC(=O)C[C@H]1C=C[C@H](NS(=O)(=O)c2ccc(F)cc2)[C@H](CO)O1 | -2.1
i | -4 | -20 | C[C@H]1CN([C@@H](C)CO)C(=O)c2cc(C#Cc3ccccc3F)cnc2O[C@H]1CN(C)C(=O)c1ccc2c(c1)OCO2 | 4.9
i | -2 | 0 | O=C(C[C@H]1CC[C@H](NC(=O)C2CC2)[C@@H](CO)O1)NCCCN1CCOCC1 | -0.6
i | -11 | -14 | CCC(=O)N(C)C[C@H]1Oc2cc(C3=CCCC3)ccc2S(=O)(=O)N([C@H](C)CO)C[C@H]1C | -0.8
i | 3 | 3 | C[C@H](CO)N1C[C@H](C)[C@@H](CN(C)Cc2ccccc2)OCCCC[C@H](C)Oc2ccc(NC(=O)Nc3ccccc3)cc2C1=O | -1.8
i | 6 | 6 | COc1ccc(NC(=O)Nc2ccc3c(c2)C(=O)N([C@@H](C)CO)C[C@H](C)[C@H](CN(C)C(=O)Nc2ccc(F)cc2)O3)cc1 | 2.0
i | -1 | -1 | CCCN1[C@@H]2c3ccc(-c4ccc(F)cc4)c(=O)n3C[C@H]1[C@H](CO)[C@H]2C(=O)NCC1CC1 | -2.1
i | -2 | 1 | COC(=O)C[C@@H]1CC[C@H]2[C@@H](COc3ccc(NS(=O)(=O)c4cccc(F)c4)cc3C(=O)N2C)O1 | 0.2
i | -1 | -6 | C[C@@H]1CN([C@H](C)CO)C(=O)c2cccc(NS(C)(=O)=O)c2O[C@@H]1CN(C)Cc1ccc(C(=O)O)cc1 | 0.3
i | 1 | -14 | COC(=O)C[C@@H]1CC[C@H]2[C@@H](COc3ccc(NS(=O)(=O)c4ccc(F)cc4)cc3C(=O)N2C)O1 | 1.8
i | 5 | 3 | C[C@H](CO)N1C[C@H](C)[C@H](CN(C)C)Oc2c(NC(=O)c3ccc(-c4nccs4)cc3)cccc2C1=O | -0.9
i | -1 | -6 | Cc1noc(C)c1S(=O)(=O)N(C)C[C@H]1Oc2ccc(NS(=O)(=O)c3ccc(F)cc3)cc2CC(=O)N([C@@H](C)CO)C[C@H]1C | -0.7
i | 1 | 3 | C[C@@H]1CN([C@@H](C)CO)C(=O)c2cc(N(C)C)ccc2O[C@@H](C)CCCCO[C@H]1CN(C)C(=O)Nc1cccc2ccccc12 | -4.1
i | 3 | 12 | Cc1cccc(NC(=O)CNC(=O)[C@@H](Cc2ccccc2)NC(=O)[C@H]2O[C@@H](n3ccc(N)nc3=O)[C@H](O)[C@@H]2O)c1C | -1.1
i | 10 | 8 | CC(=O)N(C)C[C@H]1Oc2ncc(C#CC(C)(C)O)cc2C(=O)N([C@H](C)CO)C[C@H]1C | -0.3
i | -3 | -4 | COc1cccc(S(=O)(=O)Nc2ccc3c(c2)[C@H]2C[C@H](CC(=O)N4CCCCC4)O[C@@H](CO)[C@H]2O3)c1 | -1.6
i | 0 | 6 | C[C@H](CO)N1C[C@H](C)[C@@H](CN(C)S(=O)(=O)c2cccs2)OCCCC[C@H](C)Oc2ccc(NC(=O)Nc3ccccc3)cc2C1=O | 2.2
i | 1 | 3 | CN1C(=O)c2cc(NC(=O)c3ccc(F)cc3)ccc2OC[C@H]2O[C@H](CC(=O)NCC3CC3)CC[C@@H]21 | -1.0
i | -11 | -38 | Cc1ccccc1S(=O)(=O)N1CC[C@@H]2[C@@H](CO)Nc3ccc(-c4ccccc4F)cc3[C@@H]21 | 14
i | 4 | 6 | CN1C(=O)c2cc(NC(=O)c3cscn3)ccc2OC[C@@H]2O[C@H](CC(=O)N3CCOCC3)CC[C@@H]21 | 0.0
i | 3 | -3 | COc1ccc(CNC(=O)C[C@H]2CC[C@@H]3[C@H](COc4ccc(NC(C)=O)cc4C(=O)N3C)O2)cc1 | 3.6
i | 0 | 10 | C[C@@H]1CN([C@@H](C)CO)C(=O)c2cc(-c3ccccc3)cnc2O[C@H]1CN(C)Cc1ccc(C(=O)O)cc1 | -0.7
i | -2 | -5 | O=C(C[C@H]1CC[C@@H]2[C@H](COC[C@@H](O)CN2S(=O)(=O)c2ccccc2F)O1)NCc1ccccc1Cl | 4.2
i | 5 | 8 | CCCNC(=O)N1CC2(CCN(C(=O)Cc3cccnc3)CC2)c2c([nH]c3cc(OC)ccc23)[C@H]1CO | 1.8
i | -2 | -2 | CN(C)CC#Cc1ccc([C@@H]2[C@@H](CO)N3CCCCN(C(=O)Nc4ccccc4F)C[C@@H]23)cc1 | 0.8
i | 1 | 5 | COCC(=O)Nc1ccc2c(c1)[C@@H]1C[C@H](CC(=O)N3CCN(C)CC3)O[C@@H](CO)[C@@H]1O2 | -1.4
i | 0 | -4 | O=C(C1CCCC1)N1C[C@H]2[C@@H](c3ccccc31)[C@H](CO)N2C(=O)c1ccccc1F | 1.0
i | -1 | 10 | COCC(=O)N1CCC2(CC1)CN(C(=O)Nc1ccccc1F)[C@H](CO)c1[nH]c3cc(OC)ccc3c12 | 1.6
i | 6 | 2 | COc1ccc(NC(=O)Nc2ccc3c(c2)CC(=O)N([C@@H](C)CO)C[C@@H](C)[C@@H](CN(C)C(=O)Nc2cccc4ccccc24)O3)cc1 | -0.8
i | 1 | 1 | Cc1noc(C)c1NC(=O)N(C)C[C@H]1OCCCC[C@@H](C)Oc2ccc(NC(=O)C3CCCCC3)cc2C(=O)N([C@@H](C)CO)C[C@@H]1C | -2.5
i | 0 | 0 | COCC(=O)N1CC2(C1)[C@@H](c1ccc(-c3ccccc3)cc1)[C@H](CO)N2C(=O)COC | -0.8
i | -1 | 5 | C[C@H](O)C#Cc1ccc2c(c1)O[C@H](CN(C)Cc1ccc(-c3ccccc3)cc1)[C@@H](C)CN([C@H](C)CO)S2(=O)=O | 4.6
i | -2 | -5 | CCC(=O)N1[C@H](CN(C)C(C)=O)[C@@H](c2ccc(C3=CCCC3)cc2)[C@@H]1CO | 0.1
i | -2 | -20 | COc1cccc(-c2ccc3c(c2)[C@@H]2[C@@H](CCN2S(=O)(=O)c2ccccc2F)[C@H](CO)N3)c1 | -2.6
i | 8 | 3 | CCCC#Cc1ccc([C@@H]2[C@@H](CO)N3CCCCN(Cc4ccncc4)C[C@H]23)cc1 | 2.8
i | 2 | -1 | CS(=O)(=O)Nc1ccc2c(c1)[C@@H]1C[C@H](CC(=O)NCc3ccccc3F)O[C@H](CO)[C@@H]1O2 | -0.9
i | 3 | 13 | C[C@H]1CN([C@@H](C)CO)C(=O)c2cc(C#Cc3ccccn3)cnc2O[C@H]1CN(C)Cc1cccnc1 | 2.6
i | -2 | -7 | C[C@H]1CN([C@@H](C)CO)C(=O)Cc2cc(NC(=O)Nc3cccc4ccccc34)ccc2O[C@H]1CN(C)CC1CCCCC1 | -4.2
i | -5 | -7 | CCC(=O)N1CC2(C1)CN(CC1CCCCC1)[C@H](CO)c1c2c2ccc(OC)cc2n1C | -1.3
i | -7 | -11 | Cc1ccc(S(=O)(=O)Nc2ccc3c(c2)C(=O)N([C@@H](C)CO)C[C@@H](C)[C@H](CN(C)C(=O)Nc2ccc(C(F)(F)F)cc2)O3)cc1 | -2.3
i | 3 | -9 | COc1ccc(NC(=O)Nc2cccc3c2O[C@H](CN(C)C)[C@@H](C)CN([C@H](C)CO)C3=O)cc1 | -0.2
i | 0 | 2 | C[C@@H]1CN([C@H](C)CO)C(=O)c2cc(NC(=O)CCC(F)(F)F)ccc2O[C@H]1CN(C)C(=O)NC1CCCCC1 | -1.8
i | -1 | -4 | CN1C[C@@H](O)COC[C@H]2O[C@@H](CC(=O)NC3CCCC3)CC[C@@H]21 | -2.7
i | 0 | 8 | CCCNC(=O)N1C[C@H](C)[C@H](OC)CN(C)C(=O)c2ccc(NC(=O)CCC)cc2OC[C@@H]1C | -3.6
i | -9 | 3 | Nc1[nH]c(C(=O)c2ccccc2)c(-c2ccc(Cl)cc2Cl)c1C(=O)c1ccc(Cl)cc1 | 15
i | 6 | -1 | COc1ccc(S(=O)(=O)Nc2ccc3c(c2)C(=O)N([C@H](C)CO)C[C@H](C)[C@H](CN(C)Cc2ccc(-c4ccccc4)cc2)O3)cc1 | 1.9
i | 2 | 4 | CC(C)NC(=O)N(C)C[C@H]1Oc2ncc(C#CC3CC3)cc2C(=O)N([C@H](C)CO)C[C@@H]1C | -0.4
i | -3 | -6 | Cc1ccc(S(=O)(=O)N(C)C[C@H]2Oc3ccc(NS(=O)(=O)c4cccs4)cc3C(=O)N([C@@H](C)CO)C[C@@H]2C)cc1 | -1.3
i | -12* | -24* | O=C(C(=O)N1CCC(CNS(=O)(=O)c2ccc(F)c(F)c2)CC1)c1cc2ccccc2o1 | 6.1*
i | 0 | 11 | C[C@@H]1CN([C@@H](C)CO)C(=O)c2cc(-c3ccccc3)cnc2O[C@H]1CN(C)C(=O)c1ccccc1F | -1.4
i | -7 | -45 | COc1ccc(NC(=O)N2CCCCN3[C@H](C2)[C@H](c2ccc(-c4ccccc4C)cc2)[C@@H]3CO)cc1 | 1.2
i | 1 | 3 | C[C@@H]1CCCCO[C@@H](CN(C)C(=O)Nc2ccccc2)[C@@H](C)CN([C@@H](C)CO)C(=O)c2cc(NC(=O)CCC(F)(F)F)ccc2O1 | -0.9
i | 2 | 1 | CO[C@@H]1CN(C)C(=O)c2cc(NC(=O)c3nc4ccccc4s3)ccc2OC[C@@H](C)NC[C@@H]1C | -1.2
i | -3 | -13 | C[C@@H]1CN([C@@H](C)CO)C(=O)Cc2cc(NS(=O)(=O)c3cccs3)ccc2O[C@@H]1CN(C)S(=O)(=O)c1ccc(F)cc1 | 1.8

Not a retest: eight of the compounds above.
FGF22 binding | Ecoli rRNA inh | Ecoli rRNA inh OD600 | SMILES | Ecoli rRNA inh RFP
i | 2 | 5 | CN(C)CCCNC(=O)C[C@H]1C=C[C@H](NS(=O)(=O)c2ccc(F)cc2)[C@H](CO)O1 | -2.1
i | -4 | -20 | C[C@H]1CN([C@@H](C)CO)C(=O)c2cc(C#Cc3ccccc3F)cnc2O[C@H]1CN(C)C(=O)c1ccc2c(c1)OCO2 | 4.9
i | -2 | 0 | O=C(C[C@H]1CC[C@H](NC(=O)C2CC2)[C@@H](CO)O1)NCCCN1CCOCC1 | -0.6
i | -11 | -14 | CCC(=O)N(C)C[C@H]1Oc2cc(C3=CCCC3)ccc2S(=O)(=O)N([C@H](C)CO)C[C@H]1C | -0.8
i | 3 | 3 | C[C@H](CO)N1C[C@H](C)[C@@H](CN(C)Cc2ccccc2)OCCCC[C@H](C)Oc2ccc(NC(=O)Nc3ccccc3)cc2C1=O | -1.8
i | 6 | 6 | COc1ccc(NC(=O)Nc2ccc3c(c2)C(=O)N([C@@H](C)CO)C[C@H](C)[C@H](CN(C)C(=O)Nc2ccc(F)cc2)O3)cc1 | 2.0
i | -1 | -1 | CCCN1[C@@H]2c3ccc(-c4ccc(F)cc4)c(=O)n3C[C@H]1[C@H](CO)[C@H]2C(=O)NCC1CC1 | -2.1
i | -2 | 1 | COC(=O)C[C@@H]1CC[C@H]2[C@@H](COc3ccc(NS(=O)(=O)c4cccc(F)c4)cc3C(=O)N2C)O1 | 0.2

(more compounds)
FGF22 binding | Ecoli rRNA inh | Ecoli rRNA inh OD600 | SMILES | Ecoli rRNA inh RFP
i | 2 | 8 | C[C@H](CO)N1C[C@H](C)[C@@H](CN(C)Cc2ccccc2)Oc2c(NS(=O)(=O)c3cccs3)cccc2C1=O | -1.0
i | 5 | 12 | C[C@@H]1CN([C@@H](C)CO)C(=O)c2cc(NC(=O)Nc3ccc(C(F)(F)F)cc3)ccc2O[C@@H](C)CCCCO[C@H]1CN(C)S(=O)(=O)c1ccccc1 | -2.8
i | 0 | 3 | C[C@H](CO)N1C[C@H](C)[C@H](CN(C)C(=O)Nc2ccc(N3CCN(C)CC3)cc2)OCc2cn(nn2)CCCC1=O | -2.6
i | 7 | -5 | CC(C)CC#Cc1cnc2c(c1)C(=O)N([C@H](C)CO)C[C@H](C)[C@H](CN(C)C(=O)C1CCCCC1)O2 | 4.0
i | 0 | 3 | O=C(NC[C@H]1[C@H](c2ccccc2)[C@@H](CO)N1Cc1ccccn1)C1CCCC1 | -0.5
i | 1 | 2 | CCCC#Cc1ccc([C@@H]2[C@H]3CN(Cc4cncnc4)CCCCN3[C@H]2CO)cc1 | 0.7

An excerpt; count on the stated rates, not on these rows.
